Screening data from PubChem.
YopH PTP inh – YopH (Yersinia) phosphatase inhibition | AID 898 | inhibition, %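 (about 10 µM by stock and volumes)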 | 140,000 compounds, 0.16% hits | fluorescence Ex485/Em525;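 active means inhibition of 50% or more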;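 further: controls were vehicle for no effect and minimum signal wells for full effect; inactives centre near -20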
RecA splice inh – Mtb RecA intein splicing inhibition | inhibition, %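 (about 9 µM by stock and volumes)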 | 290,000 compounds, 0.75% hits | P9WHJ3 | cell-free RecA intein splicing, fluorescence; in the data active means inhibition above about 30%; inconclusive means no clear call, values can overlap the other calls;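 further: 0% = vehicle wells and 100% = reference inhibitor control wells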
Target sequence (P9WHJ3 whole entry, looked up, canonical isoform): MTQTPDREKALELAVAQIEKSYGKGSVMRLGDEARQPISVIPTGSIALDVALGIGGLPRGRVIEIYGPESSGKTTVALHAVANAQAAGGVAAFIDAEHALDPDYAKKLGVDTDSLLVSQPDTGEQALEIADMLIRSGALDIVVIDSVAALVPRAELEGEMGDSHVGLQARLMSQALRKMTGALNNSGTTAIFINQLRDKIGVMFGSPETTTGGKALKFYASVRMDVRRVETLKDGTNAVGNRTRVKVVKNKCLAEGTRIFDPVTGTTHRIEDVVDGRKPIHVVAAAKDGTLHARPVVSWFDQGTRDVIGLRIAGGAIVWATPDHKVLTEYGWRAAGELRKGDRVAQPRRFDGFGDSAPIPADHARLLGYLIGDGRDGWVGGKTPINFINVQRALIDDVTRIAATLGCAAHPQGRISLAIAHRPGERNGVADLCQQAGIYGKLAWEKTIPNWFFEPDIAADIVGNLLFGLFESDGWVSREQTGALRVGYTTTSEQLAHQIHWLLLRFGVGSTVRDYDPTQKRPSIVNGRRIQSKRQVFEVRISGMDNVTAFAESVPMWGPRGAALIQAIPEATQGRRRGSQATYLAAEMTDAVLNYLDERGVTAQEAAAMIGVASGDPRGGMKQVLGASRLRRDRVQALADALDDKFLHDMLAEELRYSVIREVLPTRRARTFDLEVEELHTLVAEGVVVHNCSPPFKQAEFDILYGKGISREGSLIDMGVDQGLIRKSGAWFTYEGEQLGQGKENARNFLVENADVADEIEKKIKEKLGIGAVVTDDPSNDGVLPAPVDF
Mtb bLac sens – beta-lactam sensitization of Mtb H37Rv; 330,000 compounds, 0.27% hits; M. tuberculosis H37Rv growth with meropenem, percent inhibition; hits of this screen are not shown here; inhibition, % at 25 µM;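 active means about 74% or more and at least 40 points above the plate without the antibiotic, then above 30% in a dose series; inconclusive means first-round hits that could not be retested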;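 further: growth measured after seven days incubation then overnight dye step; 0% = bacteria only wells and 100% = bacteria with antibiotic; twin plates without the antibiotic show which effects depend on it; some results filed as inactive read as strong as hits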
Arbovirus inh – antivirals against arbovirus infection; arbovirus infection cell-based antiviral screen; 200,000 compounds, 0.37% hits; inhibition, % at 10 µM;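 active means inhibition from about 30%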;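 further: bluetongue infection of BSR cells; cell survival read as ATP light after 72 h; 0% = infected wells without compound and 100% = uninfected wells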
Mtb growth – M. tuberculosis H37Rv growth inhibitors, H37Rv strain (AID 1626). 220,000 compounds, 0.95% hits. M. tuberculosis H37Rv growth inhibition; higher % means a stronger effect. inhibition, % at 10 µM; hits with a dose series show IC50 in µM;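 active means confirmed in a dose series; inconclusive means inhibition above 80% but not taken into the dose series; inactive means below 80% or under 30% at every dose of the series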;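 further: bacteria incubated seven days before Alamar blue readout; 0% = bacteria only wells and 100% = bacteria with antibiotic wells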
Arbovirus inh repeat – recorded beside Arbovirus inh, whose call it bears; inhibition, %; measured here: 10K subset replicate screen; many hits read low in the repeat;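 first of two repeat runs on a subset; 0% = infected and 100% = uninfected wells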
Starred values were filed as active, the others as inactive; u = inconclusive; x = not tested or not shown. These rows are one share of the data. The share of hits here may be higher or lower than overall.

SMILES	YopH PTP inh	RecA splice inh	Mtb bLac sens	Arbovirus inh	Mtb growth	others
CCCCc1c(O)c2ccccc2[nH]c1=O	-42.7	-1.9	-8.6	6.0	-2.6%
CC(=O)Nc1ccc(NS(=O)(=O)c2cc(C)sc2C)cc1	2.6	-0.6	1.0	1.5	2.9%
Cc1cccc(-c2nc3ccccc3c3nncn23)c1	-25.3	-0.5	-4.8	3.4	-8.7%
COc1ccc(S(=O)(=O)n2oc(=O)cc2-c2ccccc2)cc1	20.8	0.2	4.4	5.4	4.8%
O=C(CSc1nnnn1Cc1ccccc1)N1CCN(c2ccccc2)CC1	4.2	0.3	u	2.0	x
Cn1c(/C(C#N)=N/O)nc2ccccc21	-45.1	-0.7	-5.7	-2.2	-6.8%
CCOC(=O)CNC(=O)Cn1cnc2sc(C)c(S(=O)(=O)N3CCC(C)CC3)c2c1=O	13.7	-1.6	-2.5	-0.6	-1.0%	Arbovirus inh repeat=-0.3
C=CCc1cc(C=O)cc(OCC)c1OCc1ccc(Cl)cc1	-37.4	11.1	20.3	-10.7	9.6%
CC(C)CC(=O)N(Cc1ccc(F)cc1)C1CCS(=O)(=O)C1 (stereo unspecified)	x	-0.9	4.4	4.7	-5.4%
CCC(C)NC(=O)/C=C1\Sc2ccccc2NC1=O (stereo unspecified)	-24.7	-3.8	-0.6	-9.5	-7.3%
CCn1c(SCC(=O)Nc2ccc(C(=O)OC)cc2)nnc1-c1cccs1	-16.1	-1.4	4.7	0.9	-8.2%
CCOC(=O)Cn1cnc2c(cnn2-c2ccccc2)c1=O	x	-1.1	-7.0	x	x
CCOc1cc(C)c(C(C)C)cc1S(=O)(=O)NCc1ccccn1	4.3	-0.1	2.3	3.4	-5.9%
CCOC(=O)Nc1ccc(OC)cc1S(=O)(=O)N1CCCCC1	17.4	-1.5	-11.8	0.2	-12.5%
Cc1cc(-c2ccc(C(C)C)c(S(=O)(=O)N3CCC(C)CC3)c2)on1	x	6.4	1.4	x	x
Cc1[nH]c2ccccc2c1C(c1ccncc1)N1CCN(c2ccc(F)cc2)CC1 (stereo unspecified)	3.1	5.7	3.9	15.2	-6.0%
COc1ccc(Br)cc1CNc1ccc2[nH]c(=O)[nH]c2c1	x	-3.2	2.9	-7.7	-7.7%
COc1ccc(CCNC(=O)CCc2ccc(S(=O)(=O)NCC(C)C)cc2)cc1OC	x	-3.6	5.0	1.5	7.2%
CC1(C)Cc2c(sc(/N=C/N3CCCCCC3)c2C#N)C(C)(C)N1	x	-3.5	6.2	-2.8	9.6%
CC(C)CN1CCN(CCCc2ccccc2)C(CCO)C1 (stereo unspecified)	x	0.1	-4.3	x	x
O=C(Nc1cc2cccc([N+](=O)[O-])c2oc1=O)c1cccs1	x	-4.0	0.0	-1.5	3.6%
O=C(/C=C/c1ccccc1[N+](=O)[O-])c1ccc(F)cc1	x	4.1	x	-6.1	49.5%
O=C(NCc1ccco1)c1cc([N+](=O)[O-])ccc1N1CCOCC1	x	0.8	-10.6	-2.4	-5.6%
O=C(NCC1CCCO1)C(C(=O)c1ccccc1)n1cc(Cl)ccc1=O (stereo unspecified)	-4.6	2.1	6.8	6.0	-1.1%
O=C(NCCN1CCOCC1)c1cc(-c2ccc(Cl)s2)nc2ccccc12	x	-3.2	-0.4	x	x

Gathered by group: the entries above containing a nitro group on carbon (three)
SMILES	YopH PTP inh	RecA splice inh	Mtb bLac sens	Arbovirus inh	Mtb growth	others
O=C(Nc1cc2cccc([N+](=O)[O-])c2oc1=O)c1cccs1	x	-4.0	0.0	-1.5	3.6%
O=C(/C=C/c1ccccc1[N+](=O)[O-])c1ccc(F)cc1	x	4.1	x	-6.1	49.5%
O=C(NCc1ccco1)c1cc([N+](=O)[O-])ccc1N1CCOCC1	x	0.8	-10.6	-2.4	-5.6%

(list continues)
SMILES	YopH PTP inh	RecA splice inh	Mtb bLac sens	Arbovirus inh	Mtb growth	others
O=C(Nc1ccncc1)c1ccc(N2CCCC2=O)cc1	x	-2.1	-13.0	x	x
COc1cc2cc(CN(CCN3CCOCC3)C(=O)Nc3ccc(F)cc3)c(=O)[nH]c2cc1OC	x	-6.4	16.2	3.5	3.9%
COc1ccccc1NC(=O)N(Cc1ccc2c(c1)OCO2)Cc1nc2ccccc2c(=O)[nH]1	-34.5	-1.2	-1.2	-2.4	-3.1%
CC(C)c1ccc(N2CC(C(=O)Nc3nccs3)CC2=O)cc1 (stereo unspecified)	-2.8	-2.0	13.8	3.6	-5.1%
Cc1ccc(N=Cc2c(O)c3ccccc3n(C)c2=O)cc1	x	-1.7	4.9	x	x
COc1cccc(Nc2nc3cc(OC)ccc3cc2C#N)c1	x	-24.2	-1.1	8.6	-2.9%
Fc1ccc(NC(=S)N2CCN(c3cccc(C(F)(F)F)c3)CC2)cc1	-8.5	0.8	-3.1	15.2	6.9%
O=C(NCCS(=O)(=O)N1CCN(c2cccc(Cl)c2)CC1)C1CC1	x	-1.8	0.8	x	x
CC(=O)CCS(=O)(=O)c1ccc(Oc2ccc(S(=O)(=O)CCC(C)=O)cc2)cc1	2.7	-0.2	49.1	-3.0	-4.5%
CCn1cc(CNC(=O)c2cc(COc3ccc(F)cc3Cl)on2)cn1	x	1.4	4.2	-18.9	2.0%
Cc1nc(SCC(=O)NC(C)(C)C)c2c(-c3cccs3)csc2n1	-22.6	10.0	1.4	10.3	0.2%
CC(C)C(=O)Nc1ccc(C(=O)NNC(=O)NC2CCCCC2)cc1	-25.8	x	-7.6	-1.6	-3.1%
CC(=O)c1ccc(N2CCN(C(=O)c3cc(-c4ccncc4)nc4ccc(Br)cc34)CC2)cc1	x	4.3	16.9	x	x
Cc1[nH]c(=O)c(C#N)c(C)c1CCC(=O)NCc1ccc(Cl)cc1	x	-4.6	4.3	x	x
O=C(CN1CCCCCC1)Nc1ccc(F)c(F)c1F	-30.5	-0.6	-16.2	3.8	-1.1%
C[C@@]12CCC3[C@@](CC[C@@H]4[C@](C)(C(=O)O)CCC[C@@]34C)(C[C@H]1O)C2 (stereo partly specified)	x	-1.8	-1.6	x	x
Cc1ccccc1NC1(C#N)C(=O)Nc2ccccc21 (stereo unspecified)	-19.2	1.5	-12.9	5.0	x
COc1cccc(OCc2cc(C(=O)NCc3cnc4ccccn34)no2)c1	x	-0.5	4.9	x	x
Cc1ccc(N2CCN(C(=O)NC3CCCCC3)CC2)c(C)c1	x	-0.6	6.6	x	x
O=C(Nc1ccc2c(c1)OCO2)Nc1ccccc1F	x	-2.8	-5.7	x	x
CN(c1ccccc1)c1nc(N)c([N+](=O)[O-])c(NCc2ccco2)n1	-9.6	10.2	8.9	5.6	4.6%
CS(=O)(=O)N1N=C(c2ccco2)CC1c1cccc([N+](=O)[O-])c1 (stereo unspecified)	x	-1.2	-4.3	x	-2.1%
CC1(c2ccc3ccccc3c2)NC(=O)N(CC(=O)N2CCC(C(N)=O)CC2)C1=O (stereo unspecified)	x	-0.9	-1.9	x	x
O=C(CSc1nc2ccccc2[nH]1)c1cccs1	-29.2	2.0	-1.0	8.1	3.4%
Cc1noc(C)c1S(=O)(=O)N1CCCC(C(=O)c2cccc(OC(C)C)c2)C1 (stereo unspecified)	x	-0.4	-10.6	-5.9	0.0%

Arranged by length of the SMILES (ascending): 3 of the compounds above
SMILES	YopH PTP inh	RecA splice inh	Mtb bLac sens	Arbovirus inh	Mtb growth	others
O=C(Nc1ccncc1)c1ccc(N2CCCC2=O)cc1	x	-2.1	-13.0	x	x
CC(C)CC(=O)N(Cc1ccc(F)cc1)C1CCS(=O)(=O)C1 (stereo unspecified)	x	-0.9	4.4	4.7	-5.4%
Cc1cc(-c2ccc(C(C)C)c(S(=O)(=O)N3CCC(C)CC3)c2)on1	x	6.4	1.4	x	x

(list continues)
SMILES	YopH PTP inh	RecA splice inh	Mtb bLac sens	Arbovirus inh	Mtb growth	others
COc1ccccc1C(=O)NCCC(=O)Nc1cccc(C)n1	x	0.5	-3.0	x	x
C=CCn1c(COc2ccccc2F)nnc1SCC(=O)c1c[nH]c2ccccc12	-26.9	-6.0	4.9	6.2	26.2%
Cn1c(Cn2nnc3ccccc32)nnc1SCC(=O)N1c2ccccc2CCc2ccccc21	-12.0	12.5	3.3	-9.0	6.7%
CCOc1ccc(NC(=O)c2cn(CC(C)C)c(=O)c3c2c2ccccc2n3C)cc1	-25.0	-0.6	4.6	-8.7	4.9%
COc1ccc(CN(C)C(=O)CC(c2ccccc2)c2ccccc2)cc1	x	12.0	5.1	x	x
Cc1cccc(NC(=O)C2CCCN2S(=O)(=O)c2cccc3cccnc23)c1 (stereo unspecified)	-38.0	x	x	-2.7	-8.8%	Arbovirus inh repeat=-1.3
Cc1cccc(-c2nc3cc([N+](=O)[O-])ccc3o2)c1	x	1.2	2.5	-5.4	-4.5%
CC(C)(C)C(=O)CN1C2=NCCN2c2ccccc21	x	-3.4	-3.4	-0.3	-1.5%
Cn1c(NC(=O)c2ccc(C(C)(C)C)cc2)cc(=O)n(C)c1=O	-8.0	x	-2.2	-7.8	7.6%	Arbovirus inh repeat=-6.2
COc1ccc2cc(C(=O)N3CCN(c4ccc(F)cc4)CC3)[nH]c2c1	x	1.6	0.8	x	x
COc1ccc(C2C3=C(CC(C)(C)CC3=O)N(C)C3=C2C(=O)CC(C)(C)C3)cc1OC	x	-3.3	-1.2	x	x
CCC(C)c1ccccc1NC(=S)NC(=O)c1ccco1 (stereo unspecified)	x	6.2	-0.4	x	x
O=C(O)/C=C/C(=O)NCc1ccccc1	-17.4	-0.3	-1.9	0.6	-0.1%
Cc1c(-c2ccccc2Cl)nc2ccccc2c1C(=O)O	x	-0.1	0.2	x	-3.6%
O=C1N(S(=O)(=O)c2ccccc2F)C(=O)C2(CCCC2)N1S(=O)(=O)c1ccccc1F	-32.5	-0.3	-7.1	5.5	-5.1%
Cc1ccc(C)c(C(C)NC(=O)C2CCCC2)c1 (stereo unspecified)	x	1.3	-9.6	x	x
COC(=O)c1c(C(=O)OC)c2ccncn2c1Cl	2.1	0.9	-8.0	-2.3	17.5%
COc1ccc(OC)c(-c2csc(NC(=O)Cc3cccs3)n2)c1	x	1.0	21.4	4.5	-1.5%
O=C(Oc1cccnc1)c1ccccc1[N+](=O)[O-]	-9.4	x	99.5	5.6	55.5%
O=c1c([N+](=O)[O-])cccn1Cc1cccc(Br)c1	x	3.2	-1.7	x	x
Cc1ncc([N+](=O)[O-])n1CC(=O)Nc1ccccc1	x	0.4	3.0	7.9	-1.4%
O=C(O)c1ccccc1OCc1ccccc1Br	x	2.6	-8.5	-1.2	2.8%
Cc1cccc(NC(=O)COc2cccc3c2CCN(Cc2ccccc2)C3=O)c1C	-32.0	-1.0	1.5	-4.1	-5.9%
Cn1cc([N+](=O)[O-])c(C(=O)NCc2ccco2)n1	x	-5.5	5.0	-2.5	3.1%
OCC[n+]1c2ccccc2nc2ccc(N3CCOCC3)cc21	x	31.0*	95.9	x	77.9%
Next structures:
SMILES	YopH PTP inh	RecA splice inh	Mtb bLac sens	Arbovirus inh	Mtb growth	others
COc1cccc(/C=N/n2c(=S)n(C)c3ccccc32)c1OC	2.7	x	5.5	-4.1	-1.1%
CCOC(=O)Nc1ccc(N2CCOCC2)c(S(=O)(=O)N2CCOCC2)c1	x	-4.4	0.5	x	x
CCN(CC)CCN(C(=O)Cn1nnc(-c2ccc(C)o2)n1)C(C(=O)NC(C)(C)C)c1cccs1 (stereo unspecified)	x	-0.9	-10.5	-3.4	-4.5%
COCCCNC(=O)CSc1nc2ccccc2c(=O)n1Cc1ccc2c(c1)OCO2	x	4.7	-6.4	9.2	-4.2%
Oc1c(C(c2cccs2)N2CCN(c3ccccc3)CC2)ccc2cccnc12 (stereo unspecified)	-24.4	x	u	-36.2	x
Cc1ccc(C(=O)C2(C)N(O)C(C)C(c3cccs3)=[N+]2[O-])cc1 (stereo unspecified)	1.4	-1.0	1.7	10.8	-3.6%
CCO[C@H]1OC(C(N)=O)=C[C@@H](c2coc3ccccc3c2=O)[C@@H]1CCCO	x	-0.7	1.0	0.0	-6.4%
O=C(CCCn1c(=O)c2ccccc2n(CC(=O)NCc2ccco2)c1=O)NCc1ccco1	-29.9	1.6	8.5	0.2	3.4%
O=C(CN(CC1CCCO1)C(=O)CNS(=O)(=O)c1ccccc1)NCCc1ccccc1 (stereo unspecified)	x	-2.6	-4.5	x	x
O=C(Nc1cccs1)Nc1cccnc1Cl	x	-1.7	-2.0	x	x
CC(=O)N1CCN(S(=O)(=O)c2ccc(C)cc2)C1c1ccc(N(C)C)cc1 (stereo unspecified)	-25.9	-0.2	6.0	1.2	-1.4%	Arbovirus inh repeat=1.4
Cn1c(N2CCN(C(=O)Nc3ccc(C(F)(F)F)cc3)CC2)nc2ccccc21	-36.6	-2.3	-5.4	-0.8	4.5%
C/C(=N\NC(N)=S)C1(C)CC2(CC(C)(C)OC2=O)C(=O)O1 (stereo unspecified)	x	2.3	24.0	x	-2.1%
Cc1ccccc1-n1c(SCC(=O)NCc2cccs2)nc2ccccc2c1=O	-28.2	6.3	6.1	8.2	-3.8%
